Screening data deposited in PubChem BioAssay by National Center for Advancing Translational Sciences (NCATS).
VDR inh = blocks the human vitamin D receptor; P11473; VDR-SRC2-3 peptide fluorescence polarization, 2 h; Potency, µM, inactives show max response, negative = inhibition, usual class: inhibitors; 400,000 tested, 0.93% active; AID 504847; active = well fitted inhibition curve with a large enough effect; inconclusive = small, poorly fitted or top-dose-only effect, or another doubt; inactive = no such curve, though single readings can be large or run the other way; note: series mostly up to about 120 µM
Target sequence (P11473 whole entry, looked up): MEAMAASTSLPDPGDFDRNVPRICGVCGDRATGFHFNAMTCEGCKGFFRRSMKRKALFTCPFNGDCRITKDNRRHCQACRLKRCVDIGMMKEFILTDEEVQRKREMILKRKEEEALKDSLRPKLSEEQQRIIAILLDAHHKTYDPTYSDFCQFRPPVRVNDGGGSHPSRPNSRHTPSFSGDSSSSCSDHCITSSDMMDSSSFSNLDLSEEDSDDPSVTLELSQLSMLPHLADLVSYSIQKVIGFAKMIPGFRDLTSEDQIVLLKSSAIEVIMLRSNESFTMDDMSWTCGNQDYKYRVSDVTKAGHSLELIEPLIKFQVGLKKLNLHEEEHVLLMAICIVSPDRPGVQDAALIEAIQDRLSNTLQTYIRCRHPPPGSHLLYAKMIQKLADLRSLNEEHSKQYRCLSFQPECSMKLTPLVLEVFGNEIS
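After 23 nl compound addition and a short centrifugation, plates sat for 2 hours at ambient temperature; polarization of fluorescence then indicated loss of VDR binding to peptide SRC2-3.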
The depositor's hits bear a star; ? = inconclusive; & = joins results of further samples; [ ] = another dose, or the depositor's remark. % is set by controls: 0 for no effect and ±100 for the full control effect; potency is the fitted concentration of half-maximal effect. The list is partial, so the mix of outcomes need not match the whole.

SMILES	VDR inh
Cc1[nH]n(-c2ccccc2)c(=O)c1C(c1ccc(O)c([N+](=O)[O-])c1)c1c(C)[nH]n(-c2ccccc2)c1=O	?
COc1ccc2[nH]c3c(=O)n(CCCCCC(=O)NCCC(C)C)c(=S)[nH]c3c2c1	3%
O=c1oc2ccccc2c(N2CCCCC2)c1[N+](=O)[O-]	-12%
CCOC(=O)C1(CC2CCCCO2)CCN(Cc2ccc(OC)cc2F)CC1 (stereo not given)	3%
O=C(C1CC1)N1CCN(c2nc3ccccc3s2)CC1	20%
COCCCNS(=O)(=O)c1ccc2c3c(cccc13)C(=O)S2	20%
Cc1ccc(C(=O)OCC(=O)NC(=O)Cc2ccccc2)c(O)c1	-8%
COc1cccc(N2CCN(C(=O)CNC(=O)c3sc4ccccc4c3Cl)CC2)c1	9%
O=C(N(c1ccccc1)c1ccccc1)n1ccnc1	20%
CCOC(=O)C1=C(c2ccccc2)N=C2SCC(=O)N2C1c1ccc(OCC)c(OCC)c1 (stereo not given)	8%

The final five entries of the section before come first, to join the parts.
SMILES	VDR inh
COCCCNS(=O)(=O)c1ccc2c3c(cccc13)C(=O)S2	20%
Cc1ccc(C(=O)OCC(=O)NC(=O)Cc2ccccc2)c(O)c1	-8%
COc1cccc(N2CCN(C(=O)CNC(=O)c3sc4ccccc4c3Cl)CC2)c1	9%
O=C(N(c1ccccc1)c1ccccc1)n1ccnc1	20%
CCOC(=O)C1=C(c2ccccc2)N=C2SCC(=O)N2C1c1ccc(OCC)c(OCC)c1 (stereo not given)	8%
CC1=C(C(=O)N2CCOCC2)C(c2cc(C)cs2)NC(=O)N1 (stereo not given)	4%
Cc1cc(Br)cc(C)c1NC(=O)c1ccccc1[N+](=O)[O-]	-3%
C/C(=N/Nc1ccccc1C(=O)O)c1cccs1	-6%
Cc1ccc(C(=O)OCC(=O)c2cc(C)n(CC3CCCO3)c2C)cc1 (stereo not given)	-4%
CCCOc1ccc(N2CC(C(=O)Nc3ccccc3OC)CC2=O)cc1 (stereo not given)	-4%
Cc1cc(NC(=O)C(C)Oc2ccc(Cl)cc2Cl)n(-c2ccccc2)n1 (stereo not given)	8%
COc1ccc(C2Nc3ccccc3C(=O)N2O)cc1OC (stereo not given)	-7%
CC(C)OC(=O)[C@H]1[C@H](c2ccc(Cl)cc2)[C@@](C#N)(C(N)=O)[C@@H]2C=CC(C(N)=O)=CN21	13%
COc1ccccc1/C=N/NC(=O)C(=O)Nc1ccccc1OC(F)(F)C(F)F	-1%
CC(C)CCNC(=O)c1cc(S(=O)(=O)N2CCCCC2)ccc1N1CCOCC1	-7%

Given bar-delimited: entries from further up
compound | VDR inh
C/C(=N/Nc1ccccc1C(=O)O)c1cccs1 | -6%
Cc1ccc(C(=O)OCC(=O)c2cc(C)n(CC3CCCO3)c2C)cc1 (stereo not given) | -4%

The listing continues.
SMILES	VDR inh
O=C(N/N=C/c1ccc[nH]1)c1cc(-c2cccs2)nc2ccccc12	6%
CCc1ccc(NC(=O)CN2C(=O)CSc3ccc(S(=O)(=O)N(C)C)cc32)cc1	11%
CCCC(=O)Nc1cc(C(=O)O)ccc1S(=O)(=O)c1ccc(C)cc1	-18%
COc1ccc(C(=O)Nc2ccc(OCc3cc(=O)n4ccccc4n3)cc2)cc1	7%
COc1cc(NC(=O)c2cccs2)cc(OC)c1	-11%
Cn1cccc1C(=O)c1cccc([N+](=O)[O-])c1	-5%
COc1ccc(NC(=O)CSc2nc(NS(=O)(=O)c3ccc(C)cc3)cc(=O)[nH]2)cc1	-1%
O=C(Nc1cccc(F)c1)c1cccnc1N1CCOCC1	-15%
O=C(O)c1ccccc1-c1ccccc1C(=O)Nc1ccccc1Br	18%
COC(=O)CSc1nnc(-c2ccco2)o1	2%
CC(C)OCC(O)CS(=O)Cc1ccccc1 (stereo not given)	1%
O=C(Cc1ccccc1)N1CCN(C(=O)c2ccco2)CC1	4%
Cc1cnc(C(=O)Nc2cccc(S(=O)(=O)N(C)C)c2)cn1	19%
COc1ccc(OC)c(CNC(=O)Cn2nc(C)c3c(C)n(-c4ccccc4)nc3c2=O)c1	17%
O=C(CSc1nnc2ccc(-c3ccc(F)cc3)nn12)NCC1CCCO1 (stereo not given)	-1%
OCCSc1nc(-c2ccccc2)nc2ccc(F)cc12	-4%
C=CCn1c(-c2ccc(Cl)cc2)cnc1SC(C)C(=O)NC(N)=O (stereo not given)	?
Cn1c(-c2ccc(F)cc2)cc2onc(-c3c(F)cccc3Cl)c2c1=O	-7%
COc1ccc(CC(=O)N2CCN(S(=O)(=O)c3cccs3)CC2)cc1OC	-4%
CCC(C)(C)C1CCC2(CC1)NC(=O)N(CC(=O)Nc1nc(-c3ccc(C)cc3)cs1)C2=O (stereo not given)	9%
O=S(=O)(c1cnc[nH]1)N1CCN(c2ccc(Cl)cc2)CC1	-13%
N#C/C(=N\Nc1ccc(S(=O)(=O)N2CCc3ccccc32)cc1)C(N)=S	?
Oc1ccccc1CC=NC1CCCCC1	-3%
CCc1cc(C(=O)NCCN(C)C)cs1	3%
COc1ccc(-c2cc(C(=O)Nc3ccc(OC)c(OC)c3)no2)cc1	-4%
CCOC(=O)c1ccc(NC(=O)CSc2nnc(CNc3ccc(OC)cc3)n2C)cc1	-18%
CCNC(=O)C(=O)NCC(c1cccs1)S(=O)(=O)c1ccc(C)cc1 (stereo not given)	-7%
CC[C@]12c3[nH]c4ccc(Cl)cc4c3CCN1C(=O)[C@@H](CC(=O)NCCCn1ccnc1)C[C@@H]2C(=O)N1CCN(C(=O)c2ccco2)CC1	-8%
CCOc1ccc2[nH]c3c(N4CCN(c5ccccn5)CC4)ncnc3c2c1	19%
COc1ccc(C)cc1S(=O)(=O)Nc1ccccc1	-8%

Gathered by group: the entries above with a nitro group on carbon (4)
SMILES	VDR inh
Cc1[nH]n(-c2ccccc2)c(=O)c1C(c1ccc(O)c([N+](=O)[O-])c1)c1c(C)[nH]n(-c2ccccc2)c1=O	?
O=c1oc2ccccc2c(N2CCCCC2)c1[N+](=O)[O-]	-12%
Cc1cc(Br)cc(C)c1NC(=O)c1ccccc1[N+](=O)[O-]	-3%
Cn1cccc1C(=O)c1cccc([N+](=O)[O-])c1	-5%

(list continues)
SMILES	VDR inh
Cc1onc(-c2c(Cl)cccc2Cl)c1C(=O)N1CCCc2ccccc21	19%
CN(c1ccc(OCC(=O)OCC(=O)NCc2ccco2)cc1)S(=O)(=O)c1ccc2ccccc2c1	4%
Cc1ccc(C2(C(F)(F)F)NC(=O)N3CCN=C3S2)cc1 (stereo not given)	15%
CCCCCCC(=O)Nc1c(O)c2ccccc2[nH]c1=O	14%
COc1ccc(NC(=O)NNS(=O)(=O)c2ccc(Br)cc2)cc1	0%
COCCCNC(=O)c1ccc(CS(=O)(=O)c2cccc(C(F)(F)F)c2)o1	14%
OCCn1ccc(-c2ccccc2OCc2ccc(F)cc2)n1	11%
O=C(NCC1CCCO1)/C(=C\c1cccc([N+](=O)[O-])c1)NC(=O)c1ccccc1 (stereo not given)	-16%
COc1ccc(C2=Nn3c(nnc3-c3ccccc3OC)SC2)cc1OCC1CC1	-17%
COc1cc(/C=C2\S/C(=N/S(=O)(=O)Cc3ccccc3)NC2=O)c([N+](=O)[O-])cc1OC	-28%
CC(C(=O)NCC1CCCCC1)N1CCN(S(=O)(=O)c2ccccc2F)CC1 (stereo not given)	16%
CCN(CC(=O)Nc1ccc(NC(C)=O)cc1)C(=O)CSC(=S)N1CCCC1	-20%
CCOC(=O)CNc1nnc(SCC(=O)OCC)[nH]c1=O	40µM*
COc1ccc(NC(=O)CN2CCN(c3ccccn3)CC2)cc1Cl	20%
CC1(C(=O)N/N=C/c2ccc3c(c2)OCO3)CC1(Br)Br (stereo not given)	-1%
O=C(Cn1nc(C(=O)O)c2ccccc2c1=O)Nc1ccc(F)cc1	3%
CC(C)(C)c1ccc(OCC(=O)NC(Cc2c[nH]c3ccccc23)C(=O)O)cc1 (stereo not given)	-13%
CC(=O)c1ccc(Nc2cc(C)nc3nc(Cc4ccccc4)nn23)cc1	-6%
Cc1cc(C)c2cc(C)c(SCC(=O)NCc3ccco3)nc2c1	38%[activator]
Cc1oc(C)c2c(=O)cc(-c3ccc4c(c3)OCO4)cc(OC(=O)c3ccccc3Cl)c12	9%
C=CCn1nnnc1SCC(=O)Nc1cccc(OC)c1	8%
COc1cccc(Cn2c(=O)c(-c3ccc(F)cc3)nc3cnc(N(C)C)nc32)c1	-6%
COc1ccc(S(=O)(=O)N2CCC(C(=O)OCC(=O)c3ccccc3)CC2)cc1[N+](=O)[O-]	-6%
CC(=O)OC(C(=O)Nc1nccs1)c1ccccc1 (stereo not given)	20%
Cc1cc(SCc2c(F)cccc2Cl)nc(=O)[nH]1	-17%
NC(=O)c1ccc(SCC(=O)OCC(=O)NCc2ccco2)c([N+](=O)[O-])c1	8%
CCN(Cc1ccccc1)C(c1cc2cc(C)ccc2[nH]c1=O)c1nnnn1CCOC (stereo not given)	7%
CC(C)C(=O)NNC(=O)CSc1nnc(-c2ccccc2)c(-c2ccccc2)n1	-27%
NC1=NC2(CCCC2)n2c(nc3ccccc32)N1	1%
O=C(Cn1c(O)c(N=NC(=O)c2ccncc2)c2ccccc21)Nc1ccccc1	-3%

Some of these compounds in order of the VDR inh value, low to high:
Compound	VDR inh
CCOC(=O)C1(CC2CCCCO2)CCN(Cc2ccc(OC)cc2F)CC1 (stereo not given)	3%
COc1ccc(C(=O)Nc2ccc(OCc3cc(=O)n4ccccc4n3)cc2)cc1	7%
CCOc1ccc2[nH]c3c(N4CCN(c5ccccn5)CC4)ncnc3c2c1	19%

Additional entries.
SMILES	VDR inh
O=C(O)C1CCN(Cc2cnn(-c3ccccc3)c2-n2cccc2)CC1	-10%
Cc1ccc(NC(=O)NCCN2C(=O)C3C4C=CC(C4)C3C2=O)cc1 (stereo not given)	-18%
COC1=C(OC)C(=O)C(CCCCCCCCCCO)=C(C)C1=O	45µM*
Cn1cc(S(=O)(=O)Nc2ccc(Br)cc2F)c(=O)n(C)c1=O	-13%
Cc1nnc(SCC(=O)NCc2ccccc2F)c2nn(-c3ccc(Cl)cc3)c(C)c12	23%
Cc1cc(O)c(Sc2ncn[nH]2)cc1NS(=O)(=O)c1ccc(Cl)cc1	-2%
COC(=O)c1cc2c(C)[nH]c(C)c2cc(C(=O)OC)c1=O	-29%
Nc1c(N(Cc2ccco2)C(=O)COc2ccccc2)c(=O)[nH]c(=O)n1Cc1ccccc1	10%
CCOc1ccccc1N1CCN(S(=O)(=O)c2cc(C)ccc2OC)CC1	-6%
CCOc1cc(NC(=S)Nc2ccccc2)c(OCC)cc1NC(=O)c1ccccc1	-11%
Cn1cc(Br)c(C(=O)N/N=C/c2cccc(OC3CSC3)c2)n1	5%
CCOC(=O)CCN(C(=S)Nc1ccccc1)C1CCCCC1	?
CN1c2ccc(Cl)cc2C(=O)NC1C1CC=CCC1 (stereo not given)	-4%
O=c1[nH]ncn1-c1ccccc1	6%
O=C(Nc1nncs1)Oc1ccccc1	-16%
Cc1ncc([N+](=O)[O-])n1CCOC(=O)c1ccc(Br)cc1	-6%
CC(C)(C)c1ccc(C(=O)Nc2ccc(S(N)(=O)=O)cc2)cc1	-2%
Cc1ccc(N(C(=O)c2csnn2)C(C(=O)NC2CCCCC2)c2ccccn2)cc1C (stereo not given)	-11%
CCC(Sc1nc2ncccc2[nH]1)C(=O)Nc1cccc(OC)c1 (stereo not given)	6%
CN1CCCNc2nc3ccccc3nc21	9%
Clc1ccccc1/C=N/NC1=Nc2cccc3cccc1c23	-4%
COc1ccc(N(C)C(=O)CCS(=O)(=O)c2cccc3nonc23)cc1	17%
Cc1ccc(/C=C(\C#N)c2nc(-c3cc4c(ccc5ccccc54)oc3=O)cs2)cc1	-5%
Cc1cccc2nc(COc3ccc(Cl)c4cccnc34)cn12	-20%
Nn1c(Nc2ccccc2)nc2ccccc21	-7%
CCN=C1SC(CC(=O)Nc2ccc3c(c2)OCO3)C(=O)N1CC (stereo not given)	-2%
CCOC(=O)c1c(C)[nH]c(C(=O)COC(=O)c2ccncc2)c1C	-1%
CCN1CCN(C(=O)/C=C/c2ccc(C(C)C)cc2)CC1	0%
CCOc1ccccc1N(CC)C(=O)c1cc2c(=O)[nH]c3ccc(C)cc3c2s1	-8%
Cc1sc2ncn(CC(=O)NCCN(C)C)c(=O)c2c1S(=O)(=O)N1CCC(C)CC1	-13%
O=C(Oc1ccccc1C(=O)N1CCOCC1)c1ccccc1	-7%
CC(=O)c1ccccc1N(C(=O)Cn1nnc2ccccc21)C(C(=O)NCC1CCCO1)c1ccc(N2CCOCC2)cc1 (stereo not given)	-20%
O=C(N/N=C/c1sc2ccccc2c1O)c1ccccc1	-10%
COc1ccc(C(=O)Nc2nc3cc4c(cc3s2)OCO4)c(OC)c1	17%
Cc1nc2cnc(Oc3ccccc3)nc2n(C)c1=O	-11%
COc1ccc(-c2nc3ccccn3c2CN2CCN(c3ccccc3F)CC2)cc1	-2%
O=C(N/N=C/c1ccc2c(c1)OCO2)c1cc(-c2ccccc2Cl)nc2ccccc12	-1%
CC(=O)c1cccc(NS(=O)(=O)N2CCCCC2)c1	15%
O=C(Nc1ccc(Br)cc1)c1cc(-c2ccncc2)nc2ccccc12	12%
Cc1cc(C)n2nc(C(=O)OCC(=O)Nc3ccc(C)c(S(=O)(=O)N(C)C)c3)nc2n1	-21%
COc1ccccc1-c1nc2c(c(SCc3ccc(F)cc3Cl)n1)Cc1c(CO)cnc(C)c1O2	4%
COc1ccc(CNC(=O)CNC(=O)c2ccc(C(C)(C)C)cc2)cc1OC	0%
C=CCSc1nnc(NC(=O)C2CSC3(C)CCC(=O)N23)s1 (stereo not given)	3%
COc1cc(/C=C2/C(=O)NN(c3ccc(Cl)cc3)C2=O)ccc1OC(=O)c1ccco1	?
CCOC(=O)c1ccccc1NC(=O)CSc1cccc[n+]1[O-]	18%
CCN(CC)C(C)CN1c2ccccc2Sc2ccccc21 (stereo not given)	?
Cc1csc2nc3ccccc3c(=O)n12	5%
CCN1C(=O)/C(=C2/Sc3ccccc3N2CCCS(=O)(=O)O)SC1=S	-7%&-1%
O=S(=O)(c1cnc(Cl)c(Cl)c1)N1CCCc2ccccc21	-7%
O=C(O)c1cccc(Nc2nc(-c3ccc([N+](=O)[O-])cc3)nc3ccccc23)c1	11%
